Rango dissoc inh – qHTS Assay for Inhibitors of RanGTP induced Rango (Ran-regulated importin-beta cargo) - Importin beta complex dissociation | Snurportin-1 (Homo sapiens) + GTP-binding nuclear protein Ran (Homo sapiens) + Importin … | Biochemical FRET Rango-importin beta, RanGTP-induced dissociation | Potency, µM (top dose mostly 46.1 µM), inactives show at the top dose activity change, negative = inhibition | hit rate 0.071% among 340,000 | AID 540253, 2011; active means falling FRET ratio curve, often poorly fitted, with flat reads before Ran was added; inconclusive means other falling curves, or compound fluorescence or quenching; inactive means flat or rising ratio curve;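 also: potency is read from the fitted curve at half-maximal effect; % of control where 0% means no effect; nearly all actives have a fitted effect of over 45% in size; -100% = wells without RanGTP and RCC1; the record marks most hits as doubtful in a second field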
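Rango/importin beta premix (0.1/0.25 uM final), PBS + 1 mM DTT + 0.02% Tween-20 + 0.1% BSA; cpd 5 min RT; FRET pre-read; + RanGTP-RCC1 (0.6 uM Ran, 2 mM GTP, 0.2 uM RCC1); 45 min RT; FRET post-read, ex 430, em 486/530 nm.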
miR-21 reporter – qHTS Assay for Modulators of miRNAs and/orActivators of miR-21. AID 2288, 2010. Potency, µM (titrated, usually from 38.3 µM), for the others: top-dose reporter change, positive = more light. 340,000 tested, under 10 active. HeLa miR-21 FLuc reporter, luciferase, 48 h; active = well fitted rising curve with a large enough effect; inconclusive = small, poorly fitted or top-dose-only effect; inactive = no such curve, though single readings can be large or run the other way;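 also: % of control where 0% means no effect; miR-21 action dims this reporter so a rising signal means less miR-21 action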
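Luminescence from a firefly luciferase reporter carrying a miR-21 binding site downstream, stably expressed under a CMV promoter in HeLa cells that make miR-21 endogenously, reports miRNA modulation after 48 h compound exposure up to approximately 40uM final.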
GLA inh pH 4.5 – qHTS Assay for Inhibitors of Human alpha-Galactosidase at pH 4.5; 230,000 tested, under 10 active; purified enzyme, 4-MU-alpha-Gal fluorescence, pH 4.5; activity change, negative = inhibition, % at 105 µM; Alpha-galactosidase A (Homo sapiens), P06280; inconclusive = small, poorly fitted or top-dose-only inhibition, or a rising curve; inactive = flat fitted curve, though single readings scatter; no compound was filed as active;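 also: 0% = full activity with enzyme and -100% = basal without enzyme; dose as in the result columns while the protocol names 77 µM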
Target sequence (P06280 whole entry, looked up): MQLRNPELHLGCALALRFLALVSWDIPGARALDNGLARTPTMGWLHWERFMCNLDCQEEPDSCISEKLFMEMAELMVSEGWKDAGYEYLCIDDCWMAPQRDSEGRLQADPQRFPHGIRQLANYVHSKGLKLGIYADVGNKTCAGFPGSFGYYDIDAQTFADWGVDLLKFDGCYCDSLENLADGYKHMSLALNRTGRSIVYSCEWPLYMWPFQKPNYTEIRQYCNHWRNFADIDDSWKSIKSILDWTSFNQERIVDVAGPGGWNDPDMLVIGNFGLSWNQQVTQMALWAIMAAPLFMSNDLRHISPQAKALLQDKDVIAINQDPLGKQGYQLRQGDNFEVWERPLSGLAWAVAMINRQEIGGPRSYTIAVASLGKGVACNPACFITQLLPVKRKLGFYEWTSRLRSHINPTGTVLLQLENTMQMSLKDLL
Rango complex inh – qHTS Assay for Inhibitors of Rango (Ran-regulated importin-beta cargo) - Importin beta complex formation; Importin subunit beta-1 (Homo sapiens), Q14974; Rango CFP/YFP FRET sensor + importin beta, 45 min; Potency, µM (series often up to 92.2 µM), for inactives: top-dose inhibition of complex formation; hit rate 0.031% among 340,000; active = rising FRET ratio curve, often small or poorly fitted; inconclusive = mostly compound fluorescence or quenching in the first reads; inactive = flat curves in all reads;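 also: potency is read from the fitted curve at half-maximal effect; 0% = DMSO wells and 100% = buffer wells lacking importin beta; nearly all actives have a fitted effect of over 15% in size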
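FRET biosensor Rango (snurportin 1 IBB between N-terminal EYFP and C-terminal Cerulean), 50 nM in PBS/1 mM DTT/0.02% Tween-20/0.1% BSA, preincubated 5 min RT with compound; 0.125 microM importin beta added, 45 min RT, CFP/YFP FRET ratio read.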
Active calls of the source: *; u = inconclusive; x = not tested or not shown; & = joins results of further samples; [ ] = dose if it differs, or a comment. Only part of the results is shown, so the mix of outcomes need not match the whole.

1) CCN(CC)c1ccccc1
2) O=C(c1ccccc1)C1NC1c1ccccc1 (configuration not stated)
3) Cc1oc(-c2ccc(Cl)cc2)nc1CS(=O)CC(=O)N1CCC2(CC1)OCCO2 (configuration not stated)
4) N#Cc1cn(C2OC(CO)C(O)C2O)c2ncnc(N)c12 (configuration not stated)
5) CCCCCn1c(=O)c(C(=O)Nc2nc(CC(=O)OCC)cs2)c(O)c2ccccc21
6) COc1ccc(-c2nc3ccc(C(=O)N4CCC5(CC4)OCCO5)cc3nc2-c2ccc(OC)cc2)cc1
7) Cc1nn(Cc2ccccc2)c(C)c1C(=O)OCC(=O)Nc1cccc(S(N)(=O)=O)c1
8) C[C@]12CC[C@H](O)CC1=CC[C@@H]1[C@@H]2CC[C@]2(C)C(=O)CC[C@@H]12

Compound | 1 | 2 | 3 | 4 | 5 | 6 | 7 | 8
Rango dissoc inh | 11% | 21% | -17% | 1% | -4% | -17% | -16% | 16%
miR-21 reporter | x | -57% | 1% | x | 1% | 9% | -7% | x
GLA inh pH 4.5 | x | 1 | 6 | x | -5 | x | -7 | x
Rango complex inh | -0.3% | 0.0% | 0.0% | -1.9% | -0.5% | -1.3% | -3.0% | -4.6%

9) CCC(C)NC(=O)CN1C(=O)CN=C(c2ccccc2)c2ccccc21 (configuration not stated)
10) O=C1NC(=O)C(Cc2ccccc2)(Cc2ccccc2)C(=O)N1
11) c1ccc2c(N3CCNCC3)cccc2c1
12) O=P1(NCCCl)OCCCN1CCCl (configuration not stated)
13) CCCCn1c(=O)c(C=Nc2cccnc2Cl)c(O)n(CCCCl)c1=O
14) Oc1ccc2c3c1OC1c4oc5ccccc5c4C[C@@]4(O)[C@@H](C2)N(CC2CC2)CC[C@]314 (some centres not stated)
15) CCC(=O)c1cn(Cc2ccccc2)c2ccccc12
16) COc1cccc(-n2c(=S)[nH]c3ccccc3c2=O)c1

Compound | 9 | 10 | 11 | 12 | 13 | 14 | 15 | 16
Rango dissoc inh | -10% | 12% | 8% | -4% | 8% | 11% | 18% | 9%
miR-21 reporter | -1% | x | x | x | 1% | x | -11% | -8%
GLA inh pH 4.5 | 2[21.1 µM] | x | 2 | -2 | -7 | x | 2 | -3
Rango complex inh | -2.9% | u | -0.7% | -4.1% | -4.6% | 1.1% | -3.3% | 0.4%

17) Cn1ncc(Cl)c1C(=O)N1CCC2(CC1)OCCO2
18) Nc1ccc2cc(Br)ccc2c1
19) CC12CN3CC(C)(CN(C1)C3c1ccco1)C2=O (configuration not stated)
20) Cn1c(O)c(C=Nc2ccc(Br)cc2)c(=O)n(C)c1=O
21) O=c1[nH]c(=S)n(C2CC2)c(O)c1C=Nc1cccc(C(F)(F)F)c1
22) CC(N)Cc1c[nH]c2ccc(O)cc12 (configuration not stated)
23) CC12CCC3C(CC=C4CC(O)CCC43C)C1CC(=CN1CCOCC1)C2=O (configuration not stated)
24) O=C1NC(=O)C(Nc2ccc(Cl)c(Cl)c2)C(=O)N1

Compound | 17 | 18 | 19 | 20 | 21 | 22 | 23 | 24
Rango dissoc inh | -3% | 4% | -1% | -18% | 18% | 1% | 0% | -7%
miR-21 reporter | 3% | -24% | -2% | 0% | 0% | x | x | x
GLA inh pH 4.5 | x | -1 | 9 | x | -1 | 2 | x | x
Rango complex inh | 2.3% | -1.8% | -0.6% | -0.3% | 4.5% | 0.8% | 1.7% | 0.5%

25) CCC(=O)O[C@H]1CC[C@H]2[C@@H]3CCC4=CC(=O)CC[C@]4(C)[C@H]3CC[C@]12C
26) C(=NC12CN3CN(CN(C3)C1)C2)c1cccs1
27) COC(=O)C1=C(c2ccccc2)C[C@@H]2CC[C@H]1N2C(=O)N1CCOCC1
28) CC1CCC[C@H](O)CCCCCc2cc(O)cc(O)c2C(=O)O1 (some centres not stated)
29) N#CCC(=O)NN1Cc2ccccc2C1=N
30) O=C(Nc1ccccc1)c1c(O)c2c(n(Cc3ccco3)c1=O)CCCC2
31) C=CCn1c(O)c(C=Nc2ccc(Cc3ccncc3)cc2)c(=O)[nH]c1=S
32) Cc1nc2ccc(Br)cc2c(=O)n1-c1ccc([N+](=O)[O-])c(C(F)(F)F)c1

Compound | 25 | 26 | 27 | 28 | 29 | 30 | 31 | 32
Rango dissoc inh | -13% | 3% | -20% | 2% | 0% | 23% | -2% | -8%
miR-21 reporter | x | -1% | x | 3%&9% | -5% | -9% | -4% | -5%
GLA inh pH 4.5 | -11 | 7 | x | 3 | 0 | 2 | -1 | 7
Rango complex inh | 1.6% | -0.5% | 0.1% | 1.5% | -0.8% | 6.1% | u | -1.1%

33) CCCCCSc1cc(OC)c(CCN(C)C)cc1OC
34) Cc1cccc(OP(N)(N)=O)c1C
35) COc1ccccc1N1CCN(Cc2ccc(F)cc2)CC1
36) COc1cc(O)cc2c1C(=O)OC(C)CCCC(=O)CCC/C=C\2 (configuration not stated)
37) Cc1cccc(N2C(=O)CC(=O)NC2=O)c1
38) O=C(CF)N(O)c1ccc(C=Cc2ccccc2)cc1
39) CC(O)(CS(=O)(=O)c1ccccc1)C(=O)Nc1cccc(C(F)(F)F)c1 (configuration not stated)
40) CSc1ccc(CNC2CN3CCC2CC3)cc1 (configuration not stated)

Compound | 33 | 34 | 35 | 36 | 37 | 38 | 39 | 40
Rango dissoc inh | 2% | -4% | -1% | -3% | -11% | -2% | -14% | 10%
miR-21 reporter | -18% | 0% | -1% | 14% | -1% | x | 1% | -2%
GLA inh pH 4.5 | -20 | -6 | -15 | x | -9 | x | -7 | -4
Rango complex inh | 0.8% | -2.7% | -2.7% | -0.3% | 0.7% | -0.2% | 4.4% | 3.7%

41) Cc1ccc(S(=O)(=O)Oc2ccccc2C=C2C(=O)N(C)C(=O)N(C)C2=O)cc1
42) CNCC(=O)c1ccccc1
43) CCC(C)N=Cc1c(O)n(-c2ccccc2)c(=O)[nH]c1=O (configuration not stated)
44) CCC(C)N1C(=O)/C(=C\c2cnc(N(C)C)nc2)C(=O)NC1=S (configuration not stated)
45) S=P(NCCSCc1ccccc1)(N1CC1)N1CC1
46) O=c1[nH]c(=S)[nH]c(O)c1N=Nc1ccc2c(c1)OCCO2
47) CCC(=O)C(CCN1CCOCC1)(c1ccccc1)c1ccccc1
48) COC(=O)C1=C(c2ccc(OCc3ccccc3)cc2)C[C@@H]2CC[C@H]1N2C(=O)NC1CCN(Cc2ccccc2)CC1

Compound | 41 | 42 | 43 | 44 | 45 | 46 | 47 | 48
Rango dissoc inh | 4% | -5% | 11% | 13% | 6% | 20% | -12% | 1%
miR-21 reporter | -13% | x | -3% | 6% | x | -49% | x | x
GLA inh pH 4.5 | x | x | -2 | 0 | x | -13 | x | x
Rango complex inh | u | -4.1% | 5.9% | -3.6% | 2.4% | 15% | 6.3% | -2.7%

2 entries from above, field by field.
42: CNCC(=O)c1ccccc1
- Rango dissoc inh: -5%
- miR-21 reporter: x
- GLA inh pH 4.5: x
- Rango complex inh: -4.1%
43: CCC(C)N=Cc1c(O)n(-c2ccccc2)c(=O)[nH]c1=O (configuration not stated)
- Rango dissoc inh: 11%
- miR-21 reporter: -3%
- GLA inh pH 4.5: -2
- Rango complex inh: 5.9%

Further results follow:
49) COc1ccc(C(=O)Nc2cccc(S(=O)(=O)NCc3ccco3)c2)cc1
50) COc1ccc(OCC(=O)N2CCCC(N3CCN(c4ccccc4C)CC3)C2)cc1 (configuration not stated)
51) COC(=O)N(C)c1ccc(C(O)(C(=O)OC)C(F)(F)F)cc1 (configuration not stated)
52) FC(F)(F)c1ccccc1CCN1CCNCC1
53) O=c1[nH]c2ccccc2n1C1CCN(CCCC(c2ccc(F)cc2)c2ccc(F)cc2)CC1
54) COC(=O)c1c(C)[nH]c(C(=O)C(C)[N+]23CCN(CC2)CC3)c1C (configuration not stated)
55) COc1ccc(CCNCc2cccn2C)cc1OC
56) O=C1NC(=O)N(c2ccccc2)C(=O)/C1=C/c1ccc(Sc2ccccc2)o1

Compound | 49 | 50 | 51 | 52 | 53 | 54 | 55 | 56
Rango dissoc inh | -8% | -13% | -19% | u | 3% | -12% | -10% | -19%
miR-21 reporter | x | 20% | u | -2% | 29% | -5% | -4% | -2%
GLA inh pH 4.5 | x | x | -1 | x | 0&-8&-7&-9&-1 | 2 | x | x
Rango complex inh | -2.1% | 0.4% | 0.2% | -1.7% | -1.0% | -1.8% | -1.3% | u

57) Cc1ccc(CN2C3CCCC2CC(NC(=O)Nc2cccc(F)c2)C3)cc1 (configuration not stated)
58) CCOC(=O)C(C)(CC)NC(=O)CSP(=S)(OCC)OCC (configuration not stated)
59) COc1ccc(NC(=O)Nc2cccc3cccnc23)cc1
60) O=C(Nc1ccccc1)NC1CC2CCC(C1)N2 (configuration not stated)
61) CC1NC(=O)NC(=O)C1Br (configuration not stated)
62) O=c1c2ccccc2nc(-c2cccs2)n1-c1ccccc1
63) CN(C(=O)c1ccco1)C1(c2ccccc2Cl)CCCCC1=O (configuration not stated)
64) Cn1c(=O)oc2cc(S(=O)(=O)Nc3cccc([N+](=O)[O-])c3)ccc21

Compound | 57 | 58 | 59 | 60 | 61 | 62 | 63 | 64
Rango dissoc inh | -2% | 7% | -4% | 19% | -16% | 5% | -17% | 6%
miR-21 reporter | 7% | 1% | -30% | -1% | x | 5% | 0% | -33%
GLA inh pH 4.5 | -11 | 0 | -8 | 4 | x | -6 | -11 | x
Rango complex inh | -1.4% | -0.3% | 1.0% | -3.0% | -0.3% | 3.4% | u | -0.5%

Some of these compounds in order of molecular weight, descending:
64) Cn1c(=O)oc2cc(S(=O)(=O)Nc3cccc([N+](=O)[O-])c3)ccc21
62) O=c1c2ccccc2nc(-c2cccs2)n1-c1ccccc1
59) COc1ccc(NC(=O)Nc2cccc3cccnc23)cc1
60) O=C(Nc1ccccc1)NC1CC2CCC(C1)N2 (configuration not stated)
61) CC1NC(=O)NC(=O)C1Br (configuration not stated)

Compound | 64 | 62 | 59 | 60 | 61
Rango dissoc inh | 6% | 5% | -4% | 19% | -16%
miR-21 reporter | -33% | 5% | -30% | -1% | x
GLA inh pH 4.5 | x | -6 | -8 | 4 | x
Rango complex inh | -0.5% | 3.4% | 1.0% | -3.0% | -0.3%

Other entries
65) CCCCCCCC(=O)NC(Oc1ccccc1[N+](=O)[O-])C(Cl)(Cl)Cl (configuration not stated)
66) Cn1cc([N+](=O)[O-])c(C(=O)Nc2ccc3c(C(F)(F)F)cc(=O)oc3c2)n1
67) CCCCn1c(N)c(C(=O)OCCOC)c2nc3ccccc3nc21
68) CCN(CC)c1ccc(C=C2C(=O)N(C)C(=S)N(C)C2=O)o1
69) COc1ccc(/C=C2\Oc3cc(OC(=O)N4CCOCC4)ccc3C2=O)c(OC)c1
70) Cc1nc2ccc(Cl)cc2c(=O)n1-c1cccc(Cl)c1
71) Cc1ccc(S(=O)(=O)NP(=O)(Oc2ccccc2)Oc2ccccc2)cc1
72) O=C(O)C1C2CCC(O2)C1C(=O)Nc1ccc(Cl)cc1 (configuration not stated)

Compound | 65 | 66 | 67 | 68 | 69 | 70 | 71 | 72
Rango dissoc inh | -8% | 0% | u | 2% | u | 33% | -5% | 0%
miR-21 reporter | -8% | -20% | 5% | -13% | 9% | -2% | -4% | -3%
GLA inh pH 4.5 | 4 | x | u | -4 | -11 | x | 1 | 0
Rango complex inh | -0.6% | -3.1% | u | 6.6% | u | 3.4% | -2.8% | 0.1%

73) COC(=O)C1=C(c2ccc3ccccc3c2)C[C@@H]2CC[C@H]1N2C(=O)NCCO
74) CN1CCN(Cc2ccc3ccccc3c2)CC1
75) CN1C(=O)C(Cc2nc3ccccc3c(=O)n2-c2ccccc2)c2ccccc21 (configuration not stated)
76) Cn1c(O)c(C=Nc2ccc(N3CCOCC3)cc2)c(=O)n(C)c1=S

Compound | 73 | 74 | 75 | 76
Rango dissoc inh | 3% | -25% | -9% | u
miR-21 reporter | x | -2% | -18% | -1%
GLA inh pH 4.5 | x | x | 12 | -3
Rango complex inh | 3.4% | -0.1% | -1.2% | u

Screening results deposited in PubChem by National Center for Advancing Translational Sciences (NCATS).
